Screens: PubChem, Broad Institute
Vaccinia inh: Vaccinia orthopox stage-specific inhibition. Vaccinia-infected cells, mCherry/Venus stage reporter fluorescence; stronger effect = lower value; some inactives read as strong as hits. activity change (mCherry), % (concentration not given with the values). 89,000 compounds, 0.01% hits. AID 1053133;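 active = mCherry past -33% and 40 or more points under the early reporter, replicates agreeing; inconclusive = past -33% without that gap or agreement; tested in A549 cells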;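 also: scaled between vehicle wells and reference inhibitor wells; 23 nL library stock went into each well; one replicate is shown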
Vaccinia inh Venus: second read-out of Vaccinia inh, no call of its own (marks repeat the call); activity change (Venus), %; measured here: Venus reporter, other viral stage;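 negative = less Venus signal; first of two replicates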
* marks the source's active call; other numbers are inactive results.

What do the screens show for `C[C@H]1CN([C@@H](C)CO)C(=O)c2cc(C#Cc3cccnc3)cnc2O[C@H]1CN(C)C(=O)CC1CC1`?
Vaccinia inh: 17; Vaccinia inh Venus: 7

How did C[C@@H]1CN([C@@H](C)CO)C(=O)Cc2cc(N(C)C)ccc2O[C@@H]1CN(C)S(C)(=O)=O do in these assays?
Vaccinia inh: 7; Vaccinia inh Venus: 6

Results for O=C(Nc1ccc(F)cc1)N1CC(=O)N2[C@@H](CO)[C@@H](c3ccc(-c4cccc(F)c4)cc3)[C@@H]2C1 ?
Vaccinia inh: inconclusive

Results for COc1cccc(-c2ccc3c(c2)[C@H]2[C@H](CCN2S(=O)(=O)c2cccc(OC)c2)[C@@H](CO)N3)c1 ?
Vaccinia inh: -34; Vaccinia inh Venus: -26

How did CN1CCN(C(=O)C[C@@H]2CC[C@@H]3[C@H](COc4ccc(NC(=O)C5CC5)cc4C(=O)N3C)O2)CC1 do in these assays?
Vaccinia inh: 3; Vaccinia inh Venus: -2

How did COCC(=O)NC[C@@H]1[C@@H](c2ccc(C3=CCCC3)cc2)[C@@H](CO)N1C(C)=O do in these assays?
Vaccinia inh: 14; Vaccinia inh Venus: 4

Results for CO[C@H]1CN(C)C(=O)c2ccc(NS(C)(=O)=O)cc2OC[C@H](C)N(CC2CCOCC2)C[C@H]1C ?
Vaccinia inh: 3; Vaccinia inh Venus: 11

Results for O=C(C[C@@H]1C[C@@H]2c3cc(NS(=O)(=O)c4ccc(F)cc4)ccc3O[C@@H]2[C@H](CO)O1)NCCN1CCCCC1 ?
Vaccinia inh: -3; Vaccinia inh Venus: 5

How did CC(C)NC(=O)N(C)C[C@@H]1Oc2cc(C#CC3CC3)ccc2S(=O)(=O)N([C@H](C)CO)C[C@H]1C do in these assays?
Vaccinia inh: 31; Vaccinia inh Venus: 14

Results for COc1ccc(S(=O)(=O)N(C)C[C@H]2Oc3c(NS(=O)(=O)c4cn(C)cn4)cccc3C(=O)N([C@H](C)CO)C[C@@H]2C)cc1 ?
Vaccinia inh: 49; Vaccinia inh Venus: 16

A section from the list above:
What do the screens show for `C[C@H]1CN([C@@H](C)CO)C(=O)c2cc(C#Cc3cccnc3)cnc2O[C@H]1CN(C)C(=O)CC1CC1`?
Vaccinia inh: 17; Vaccinia inh Venus: 7

How did C[C@@H]1CN([C@@H](C)CO)C(=O)Cc2cc(N(C)C)ccc2O[C@@H]1CN(C)S(C)(=O)=O do in these assays?
Vaccinia inh: 7; Vaccinia inh Venus: 6

Results for O=C(Nc1ccc(F)cc1)N1CC(=O)N2[C@@H](CO)[C@@H](c3ccc(-c4cccc(F)c4)cc3)[C@@H]2C1 ?
Vaccinia inh: inconclusive

Results for COc1cccc(-c2ccc3c(c2)[C@H]2[C@H](CCN2S(=O)(=O)c2cccc(OC)c2)[C@@H](CO)N3)c1 ?
Vaccinia inh: -34; Vaccinia inh Venus: -26

How did CN1CCN(C(=O)C[C@@H]2CC[C@@H]3[C@H](COc4ccc(NC(=O)C5CC5)cc4C(=O)N3C)O2)CC1 do in these assays?
Vaccinia inh: 3; Vaccinia inh Venus: -2

How did COCC(=O)NC[C@@H]1[C@@H](c2ccc(C3=CCCC3)cc2)[C@@H](CO)N1C(C)=O do in these assays?
Vaccinia inh: 14; Vaccinia inh Venus: 4

Results for CO[C@H]1CN(C)C(=O)c2ccc(NS(C)(=O)=O)cc2OC[C@H](C)N(CC2CCOCC2)C[C@H]1C ?
Vaccinia inh: 3; Vaccinia inh Venus: 11

Results for O=C(C[C@@H]1C[C@@H]2c3cc(NS(=O)(=O)c4ccc(F)cc4)ccc3O[C@@H]2[C@H](CO)O1)NCCN1CCCCC1 ?
Vaccinia inh: -3; Vaccinia inh Venus: 5

How did CC(C)NC(=O)N(C)C[C@@H]1Oc2cc(C#CC3CC3)ccc2S(=O)(=O)N([C@H](C)CO)C[C@H]1C do in these assays?
Vaccinia inh: 31; Vaccinia inh Venus: 14

Results for COc1ccc(S(=O)(=O)N(C)C[C@H]2Oc3c(NS(=O)(=O)c4cn(C)cn4)cccc3C(=O)N([C@H](C)CO)C[C@@H]2C)cc1 ?
Vaccinia inh: 49; Vaccinia inh Venus: 16

Next section:
Results for CCCC#Cc1cnc2c(c1)C(=O)N([C@H](C)CO)C[C@@H](C)[C@@H](CN(C)Cc1cccnc1)O2 ?
Vaccinia inh: 1; Vaccinia inh Venus: 0

How did C[C@@H]1CN([C@H](C)CO)C(=O)CCCn2cc(nn2)CO[C@H]1CN(C)Cc1cccc(O)c1 do in these assays?
Vaccinia inh: 10; Vaccinia inh Venus: 8

Results for C[C@@H]1CN([C@H](C)CO)C(=O)CCCn2cc(nn2)CO[C@H]1CN(C)C(=O)Oc1cccc2ccccc12 ?
Vaccinia inh: -1; Vaccinia inh Venus: -6

Results for COc1ccccc1S(=O)(=O)N1CC[C@H]2[C@H](CO)Nc3ccc(-c4ccccc4)cc3[C@H]21 ?
Vaccinia inh: inconclusive

What do the screens show for `C[C@@H]1CN([C@@H](C)CO)S(=O)(=O)c2ccc(C#Cc3ccccc3)cc2O[C@H]1CN(C)S(=O)(=O)c1cn(C)cn1`?
Vaccinia inh: inconclusive

Results for CCC(=O)Nc1ccc2c(c1)C(=O)N(C)C[C@@H](OC)[C@@H](C)CN(C(=O)C1CCC1)[C@@H](C)CO2 ?
Vaccinia inh: 5; Vaccinia inh Venus: 7

Results for CN(C)C(=O)c1cccc(-c2ccccc2[C@@H]2[C@H](C#N)N(C(=O)C3CC3)[C@H]2CO)c1 ?
Vaccinia inh: -26; Vaccinia inh Venus: -16

How did C[C@H]1CCCCO[C@@H](CN(C)C)[C@@H](C)CN([C@@H](C)CO)C(=O)c2cc(NC(=O)Nc3ccc(C(F)(F)F)cc3)ccc2O1 do in these assays?
Vaccinia inh: -18; Vaccinia inh Venus: -4

How did O=C(NCC[C@H]1CC[C@H](NC(=O)C2CCC2)[C@H](CO)O1)c1cc(Cl)cc(Cl)c1 do in these assays?
Vaccinia inh: 5; Vaccinia inh Venus: 7

Results for CC=Cc1ccc2n(c1=O)C[C@@H]1[C@@H](CO)[C@H](C(=O)NCCC)N(Cc3cocn3)[C@H]21 (mixture of isomers) ?
Vaccinia inh: 3; Vaccinia inh Venus: -1

Next part (two carried over from the part before).
How did O=C(NCC[C@H]1CC[C@H](NC(=O)C2CCC2)[C@H](CO)O1)c1cc(Cl)cc(Cl)c1 do in these assays?
Vaccinia inh: 5; Vaccinia inh Venus: 7

Results for CC=Cc1ccc2n(c1=O)C[C@@H]1[C@@H](CO)[C@H](C(=O)NCCC)N(Cc3cocn3)[C@H]21 (mixture of isomers) ?
Vaccinia inh: 3; Vaccinia inh Venus: -1

What do the screens show for `CC12N=C3SCc4ccccc4CN3[C@H](c3ccccc3O1)[C@H]2CO`?
Vaccinia inh: -1; Vaccinia inh Venus: -1

Results for CCNC(=O)C[C@H]1CC[C@@H]2[C@H](COC[C@H](O)CN2C(=O)c2cccnc2)O1 ?
Vaccinia inh: 38; Vaccinia inh Venus: 15

How did C[C@H]1CCCCO[C@@H](CN(C)C(=O)Nc2ccc(F)cc2)[C@@H](C)CN([C@@H](C)CO)C(=O)c2cc(NC(=O)Nc3ccc(C(F)(F)F)cc3)ccc2O1 do in these assays?
Vaccinia inh: -3; Vaccinia inh Venus: -3

What do the screens show for `C[C@H](CO)N1C[C@H](C)[C@@H](CN(C)Cc2ccc3c(c2)OCO3)OCCCC[C@H](C)Oc2ccc(NC(=O)NC3CCCCC3)cc2C1=O`?
Vaccinia inh: inconclusive

What do the screens show for `CC(C)NC(=O)N(C)C[C@@H]1Oc2ccc(NC(=O)Nc3ccc(C(F)(F)F)cc3)cc2C(=O)N([C@@H](C)CO)C[C@H]1C`?
Vaccinia inh: 10; Vaccinia inh Venus: 9

Some of the compounds tested; the hit share may differ from the screen's.
